# T cruzi inh – blocks replication of Trypanosoma cruzi. 1.4% of 300,000 active. inhibition, % (no concentration beside the values). T. cruzi beta-gal in NIH3T3, luminescence, 90 h;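 active = mean inhibition across valid replicates above about 55%, limit read from the data; inconclusive = mean below that limit but half or more replicates reach it; inactive = mean below it, under half of replicates reach it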;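 note: signal also drops with host cell toxicity which is not excluded here; 0% = plate median of DMSO wells and 100% = zero luminescence signal; higher percent means less beta-gal luminescence so fewer parasites; stock transfer was 50 nL into about 50 µL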
# UCH37 inh – blocks the human deubiquitinase UCH37. Q9Y5K5. purified proteasome/UCH37, Ub-AMC cleavage fluorescence. inhibition, % (test concentration not listed). 0.33% of 330,000 active;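 active = mean of two replicates above 20%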;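 note: 0% = compound-free wells with enzyme and 100% = wells lacking proteasome; stock transfer was 100 nL into about 20 µL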
# Target sequence (Q9Y5K5 whole entry, looked up): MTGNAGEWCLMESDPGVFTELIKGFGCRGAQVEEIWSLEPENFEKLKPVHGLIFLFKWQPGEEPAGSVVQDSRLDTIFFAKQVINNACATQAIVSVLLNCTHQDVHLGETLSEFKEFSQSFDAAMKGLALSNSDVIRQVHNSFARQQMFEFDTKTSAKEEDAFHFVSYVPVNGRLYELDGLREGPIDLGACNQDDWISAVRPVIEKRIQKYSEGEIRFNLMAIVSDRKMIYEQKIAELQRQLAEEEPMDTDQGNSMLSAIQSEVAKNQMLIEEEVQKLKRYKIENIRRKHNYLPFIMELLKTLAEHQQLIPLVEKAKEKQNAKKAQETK
#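 Reagent: Ub-AMC substrate; assay system: Proteasome-associated human UCH37 deubiquitinase; controls: no-proteasome and no-compound wells; read-out: % inhibition of Ub-AMC cleavage fluorescence; timing: 30 min preincubation with enzyme, 25 min cleavage at room temperature; signal: AMC fluorescence from Ub-AMC cleavage, excitation 355 nm, emission 460 nm; buffer or medium: Tris-HCl pH 7.4 plus ovalbumin, ATP-MgCl2, DTT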
# MLL AF4-AF9 inh – inhibitors of human MLL-AF4/AF9 interaction; inhibition, % at 10 µM; AlphaScreen, biotin-AF4 peptide binding to FLAG-AF9; 0.47% of 350,000 active; P42568;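 active = every replicate reaching a set inhibition limit, whatever the replicate mean, cut at about 25% in these data; inconclusive = mean inhibition reaches that limit but some replicates miss it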;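 note: 0% = plate neutral control median and 100% = total signal loss; the record names both 10 and 1 µM as test concentration; the first replicate is given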
# Target sequence (P42568 whole entry, looked up): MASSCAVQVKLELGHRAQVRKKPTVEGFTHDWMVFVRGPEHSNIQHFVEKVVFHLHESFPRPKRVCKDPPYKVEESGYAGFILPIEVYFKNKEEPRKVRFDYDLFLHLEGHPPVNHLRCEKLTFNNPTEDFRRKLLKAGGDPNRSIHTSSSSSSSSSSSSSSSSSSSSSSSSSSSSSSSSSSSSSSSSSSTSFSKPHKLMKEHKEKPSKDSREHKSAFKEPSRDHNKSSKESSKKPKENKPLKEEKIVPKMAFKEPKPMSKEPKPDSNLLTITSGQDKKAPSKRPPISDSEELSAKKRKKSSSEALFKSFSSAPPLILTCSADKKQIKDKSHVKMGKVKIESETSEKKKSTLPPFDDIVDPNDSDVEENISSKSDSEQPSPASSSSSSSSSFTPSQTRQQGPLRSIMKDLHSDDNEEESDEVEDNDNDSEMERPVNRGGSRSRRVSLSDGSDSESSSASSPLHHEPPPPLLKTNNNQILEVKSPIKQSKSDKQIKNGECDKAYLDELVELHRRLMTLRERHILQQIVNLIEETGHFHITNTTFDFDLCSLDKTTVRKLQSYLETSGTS
# Ecoli rRNA inh – inhibitors of bacterial rRNA selective over humanized ribosomes | E. coli WT GFP vs humanized-ribosome RFP mutants, fluorescence, 24 h; hits give low values; DMSO median 0, no signal -100 | GFP signal change (wild-type ribosome), % (concentration not given with the values) | 1.6% of 350,000 active;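 active = significant combined selectivity score with lowered wild-type GFP, culture density cut under 30%, mutant RFP and density less affected; inactive = any of these conditions unmet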; note: one replicate is shown; some compounds called inactive have numbers as strong as hits
# Beta cell apopt – blocks beta cell apoptosis. 0.8% of 300,000 active. INS-1E cytokine-induced death, ATP luminescence, 48 h; percent of positive-control rescue, neutral wells zero. protection from apoptosis, % (concentration not given with the values);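 active = all replicates at 75% or more, or half of them and the mean; inconclusive = half reach 75% but not the mean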;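 note: 0% = cytokine-treated negative control wells and 100% = positive control rescue; higher means more ATP so stronger rescue from cytokine killing; wells of about 40 µL received 100 nL stock; the first replicate is given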
# A1 inh – inhibitors of the anti-apoptotic protein A1, read as caspase activation; 0.066% of 330,000 active; MEF A1-2A-BIM cells, Caspase-Glo 3/7 luminescence, 3 h; percent of clofoctol response, vehicle zero; caspase activation, % (concentration not given with the values);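 active = over half of replicate activation scores above 10%, or exactly half above 10 with the replicate mean above 10; inconclusive = replicate mean below 10 yet half the replicates above 10; inactive = over half of replicates below 10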;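 note: wells of about 30 µL received 50 nL stock; many hits fall short of the cut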
# E coli growth – blocks Escherichia coli growth. OD600, 23 h; hits give low values. OD600 absorbance (test concentration not listed). 0.21% of 330,000 active;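 active = OD600 absorbance below the run mean of sample wells minus 3.6 SD, in any replicate, cut at about 0.56 in these data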;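 note: stock transfer was 300 nL into about 60 µL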
# FGF22 binding – shifts melting point of recombinant human FGF22; recombinant FGF22 thermal shift, SYPRO orange fluorescence; percent of sucrose octasulfate shift, DMSO zero; calls only at 9.99 µM; 1.5% of 340,000 active; AID 651658;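 active = melting point raised past a set limit in the mean and every replicate; inconclusive = no clear call; three in four hits are not shown here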
# Target sequence (Q9HCT0 whole entry, looked up): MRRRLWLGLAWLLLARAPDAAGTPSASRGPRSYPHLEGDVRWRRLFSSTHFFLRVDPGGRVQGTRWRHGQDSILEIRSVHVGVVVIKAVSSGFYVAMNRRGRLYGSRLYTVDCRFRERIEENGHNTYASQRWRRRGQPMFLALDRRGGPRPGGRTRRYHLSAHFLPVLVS
# Ecoli rRNA inh OD600 – second read-out of Ecoli rRNA inh, no call of its own (marks repeat the call); OD600 change, %; measured here: OD600 growth;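 optical density of the mix in the first replicate; 0 = DMSO median and -100 = no signal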
# Ecoli rRNA inh RFP – further read-out of Ecoli rRNA inh, marked with its call; RFP signal change, %; measured here: RFP humanized mutant strains;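 first replicate; 0 = DMSO median and -100 = no signal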
# Active calls of the source: *; i = inactive; ? = inconclusive; . = not tested or not shown; & = joins results of further samples. Some of the compounds tested; rates above refer to the full screens.
item	SMILES	T cruzi inh	UCH37 inh	MLL AF4-AF9 inh	Ecoli rRNA inh	Ecoli rRNA inh OD600	Ecoli rRNA inh RFP	Beta cell apopt	A1 inh	E coli growth	FGF22 binding
1	CC(O)[C@H]1CC[C@H]2[C@@H]3CC[C@H]4C[C@@H](O)CC[C@]4(C)[C@H]3C(=O)C[C@]12C (some centres undefined)	8	1.9	-5.5	4	-4	-2.8	3	1.4	.	i
2	c1ccc(OCCSc2nnnn2C2CCCCC2)cc1	8	1.5	.	.	.	.	.	-0.1	0.72	.
3	CCC(CC)NC(=O)CSc1nnc(-c2ccc(OC)cc2)n1C(C)C	-5	-0.8	.	.	.	.	-12	-0.2	0.73	.
4	CC(=O)Nc1ccc(S(=O)(=O)NNC(=O)COc2cc(C)ccc2C(C)C)cc1	.	1.7	.	.	.	.	0	-0.4	0.74	.
5	CC(C)(C)C(=O)O/N=C(\N)c1ccc(Br)cc1	-5	6.3	.	3	8	-0.6	2	-1.0	0.64	i
6	O=C1c2cccc(Sc3ccccc3)c2C(=O)c2c(Sc3ccccc3)cccc21	4	8.6	5.4	0	6	1.1	-9	-1.1	0.73	i
7	O=C(NCC(=O)N1CCCC(C(F)(F)F)C1)c1ccccc1Br (centres undefined)	-5	0.3	14	16	7	1.7	-7	0.1	0.6	i
8	CCOC(=O)c1ccc2nc(C)c(C)nc2c1	-2	6.1	0.6	12	19	-2.0	-5	0.9	0.65	i
9	C[C@]12CCC(=O)C=C1CC[C@@H]1[C@@H]2[C@@H](O)C[C@@]2(C)[C@H]1CC[C@]2(O)C(=O)COC(=O)CCC(=O)O	-9&17	3.6&6.2	-1.4	.	.	.	-2	-1.1&-0.1	.	i
10	O=C(c1cccs1)n1nc(-c2ccccc2)nc1NCc1ccc(F)cc1	7	-1.7	.	.	.	.	-1	-0.3	0.78	.

# Values by screen from the entries so far:
# T cruzi inh, entries 1–10 → 8, 8, -5, ., -5, 4, -5, -2, -9&17, 7

# (list continues)
item	SMILES	T cruzi inh	UCH37 inh	MLL AF4-AF9 inh	Ecoli rRNA inh	Ecoli rRNA inh OD600	Ecoli rRNA inh RFP	Beta cell apopt	A1 inh	E coli growth	FGF22 binding
11	Cc1[nH]n(-c2ccccc2)c(=O)c1N=Nc1ccccc1C(=O)N1CCCCC1	12	1.8	5.4	0	-4	4.8	-5	1.1	0.67	i
12	CCNC(=S)N1C2CCC1CC(NC(=O)NC1CCCCC1)C2 (centres undefined)	-3	0.2	-6.9	3	-1	-2.5	-6	1.1	0.67	i
13	C=C(C)CSc1nc2c(c(=O)[nH]c(=O)n2C)n1Cc1ccccc1	6	7.3	?	3	11	0.5	9	0.6	0.74	i
14	CCOC(=O)c1c(NC(=O)/C=C/c2ccco2)sc(C)c1C	13	-8.8	.	.	.	.	-3	0.3	0.71	.
15	CCOc1ccc(OCCC(=O)OCC(=O)NCc2ccccc2)cc1	-16	2.6	-3.6	5	16	3.0	2	0.3	0.67	i
16	O=C(Nc1cccc(C(=O)N2CCN(c3ccc(F)cc3)CC2)c1)c1ccccc1	-2	1.7	2.8	-27	-31	-4.1	-2	-0.7	0.71	i
17	Cc1cc(C)n(C(=O)Cn2nc(C)c(Cl)c2C)n1	-22	0.9	-0.8	9	3	-2.2	-5	?	0.63	i
18	Cc1[nH]c2ccccc2c1SCC(=O)N1CCCCCC1	-5	0.7	-0.2	-21	-23	1.1	-1	-0.3	0.71	i
19	COc1ccccc1NC(=O)C1CCCN(S(=O)(=O)c2cnc[nH]2)C1 (centres undefined)	-6	2.6	0.3	-3	-11	-4.2	-11	-0.4	0.74	i
20	CS(=O)(=O)N1CCN(c2ccc(Cl)cc2[N+](=O)[O-])CC1	-7	2.9	.	.	.	.	-5	-0.7	0.66	.
21	CCCCn1c(SCC(=O)OC)nc2c1c(=O)n(C)c(=O)n2C	-10	3.3	.	.	.	.	-1	-2.1	0.69	.
22	OCCNc1nc(NCc2ccccc2)c2ccccc2n1	38	-36	-3.2	15	4	6.8	15	0.3	0.62	i
23	Cc1cc(Cl)ccc1Oc1ncc(-c2ccc(Cl)cc2)cn1	-4	0.9	.	.	.	.	2	-0.1	0.76	.
24	Cn1c(SC/C=C/c2ccccc2)nnc1-c1ccco1	4	1.5	.	.	.	.	-4	-1.5	.	.
25	O=C1OCCC1Sc1nc2cc(Cl)ccc2n1Cc1ccccc1 (centres undefined)	-17	4.9	.	.	.	.	-6	0.3	0.72	.
26	Cc1ccc(CNC(=O)C23CN(Cc4ccccc4)CC2C(c2ccc([N+](=O)[O-])cc2)=NO3)o1 (centres undefined)	0	0.3	-3.8	3	5	-0.8	3	-0.3	0.73	i
27	O=C(NCC1CC1)c1ccc2c3n(nc2c1)-c1ccccc1CO3	12	-2.5	4.3	-38	-42	-11	25	-8.2	0.64	i
28	O=S(=O)(Nc1cccnc1)c1cccc(C(F)(F)F)c1	-9	1.9	.	.	.	.	-2	-0.1	0.73	.
29	CC(C)Oc1ccc(C(=O)NCCCNC(=O)c2cccnc2)cc1	5	.	-1.9	2	8	-0.9	5	-0.8	.	i
30	CC(CC(=O)N(C)C1CCCCC1)S(=O)(=O)c1ccc2c(c1)NC(=O)CO2 (centres undefined)	-4	0.9	1.7	-3	1	-3.4	4	0.7	0.69	i
31	CCCOc1ccc(-c2nnc(-c3ccncc3)o2)cc1	-15	-3.2	.	.	.	.	5	-4.2	0.66	.
32	CC1(c2ccccc2Br)NC(=O)N(CC(=O)NC2CCCCC2)C1=O (centres undefined)	.	-0.4	-2.2	.	.	.	0	0.7	0.69	i
33	O=C(Nc1ccc(OC(F)(F)F)cc1)c1ccccc1-n1cnnn1	.	-0.2	-6.7	-4	3	2.4	3	0.4	0.66	i
34	COc1ccc(Cl)cc1S(=O)(=O)N(C)CC(=O)N1CCCC1	-4	3.4	-0.6	5	8	1.0	-8	0.1	0.7	i
35	COc1ccccc1OCc1ccc(C(=O)Nc2ccccc2)cc1	.	-0.6	-0.5	-10	-10	-2.3	7	-4.6	0.71	i
36	CC(=O)NC(Cc1ccc(C)cc1)C(=O)NC1CCN(S(=O)(=O)c2ccccc2)CC1 (centres undefined)	1	.	-0.5	4	1	0.5	-5	-0.1	.	i
37	CCN(CC)CP(=O)(c1ccccc1)c1ccccc1	4	5.0	.	.	.	.	-6	-0.3	0.74	.
38	N#Cc1ccc(C23OCCN2CCn2c3c3ccccc3[n+]2[O-])cc1 (centres undefined)	.	1.1	48*	-3	2	-5.3	5	-1.0	0.58	i
39	CCOC(=O)N1CCN(C(=O)c2cccn3c(=O)c4cc(Cl)ccc4nc23)CC1	10	-336	.	.	.	.	3	0.1	0.69	.
40	Cc1cccc2c(=O)c(C(=O)NCCc3ccccc3)c[nH]c12	24	4.7	-11	-1	6	-0.9	12	-0.4	0.68	i

# Full records, looked up by structure.
# `CC1(c2ccccc2Br)NC(=O)N(CC(=O)NC2CCCCC2)C1=O` (centres undefined) reads T cruzi inh: .; UCH37 inh: -0.4; MLL AF4-AF9 inh: -2.2; Ecoli rRNA inh: .; Ecoli rRNA inh OD600: .; Ecoli rRNA inh RFP: .; Beta cell apopt: 0; A1 inh: 0.7; E coli growth: 0.69; FGF22 binding: i
# `N#Cc1ccc(C23OCCN2CCn2c3c3ccccc3[n+]2[O-])cc1` (centres undefined) reads T cruzi inh: .; UCH37 inh: 1.1; MLL AF4-AF9 inh: 48*; Ecoli rRNA inh: -3; Ecoli rRNA inh OD600: 2; Ecoli rRNA inh RFP: -5.3; Beta cell apopt: 5; A1 inh: -1.0; E coli growth: 0.58; FGF22 binding: i

# New compounds follow.
item	SMILES	T cruzi inh	UCH37 inh	MLL AF4-AF9 inh	Ecoli rRNA inh	Ecoli rRNA inh OD600	Ecoli rRNA inh RFP	Beta cell apopt	A1 inh	E coli growth	FGF22 binding
41	CCn1c(NC(=O)c2ccc(COc3ccc(C)cc3[N+](=O)[O-])o2)nc2ccccc21	43	4.7	.	.	.	.	21	-0.8	0.74	.
42	COc1ccc(C(=O)OCC(=O)Nc2ccc(N3CCOCC3)cc2)cc1OC	.	5.6	-3.0	.	.	.	2	-0.7	0.66	i
43	COc1ccc(CCNC(=O)C2=CCN(S(=O)(=O)c3ccc(F)cc3)CC2)cc1OC	8	2.6	1.3	-2	-2	3.1	0	0.4	0.66	i
44	Cc1cc(-c2nnc(SCC(=O)NC3CC3)n2C(C)C)cs1	19	-1.6	-1.1	13	9	5.0	-7	0.1	0.7	i
45	O=C1NC(=S)NC1(c1ccccc1)c1ccccc1	.	0.6	-0.5	-3	1	-1.3	.	.	0.68	i
46	Cc1cc(C)cc(-n2ccnc2SCC(=O)Nc2ccc3c(c2)OCCO3)c1	-3	5.8	.	.	.	.	.	0.1	0.73	.
47	CCN(CC)S(=O)(=O)c1cc(NC(=O)c2cc([N+](=O)[O-])ccc2N2CCOCC2)ccc1C	19	6.0	2.3	0	7	-4.4	.	1.0	0.71	i
48	CSc1nccc(NC(=O)c2cccc(Br)c2)n1	-6	2.7	-1.1	-6	-18	-0.6	-2	0.0	0.67	i
49	O=C(NCCCN1CCOCC1)c1cc(-c2ccc(F)cc2)on1	2	1.6	.	.	.	.	6	-0.4	0.72	.
50	CC(=O)c1ccc(S(=O)(=O)N(C)CC(=O)NCC2CCCCC2)cc1	-17	-1.7	-2.2	1	7	1.1	.	0.4	0.69	i
51	CCc1ccc(C(=O)c2ccccc2C(=O)O)s1	-10	7.2	.	.	.	.	2	-0.5	0.71	.
52	COC(=O)c1cccc(Cn2cc([N+](=O)[O-])cn2)c1	1	3.3	.	.	.	.	-3	-0.8	0.67	.
53	O=C(CSc1nnc(-c2ccncc2)n1CCc1ccccc1)N1CCCC1	7	2.3	.	.	.	.	-2	0.2	0.68	.
54	CC(C)(C)c1ccc(C(=O)NCC(=O)OCC(=O)Nc2ccc3c(c2)OCCO3)cc1	-4	2.0	1.4	-4	-5	-0.8	-5	0.1	0.69	i
55	CCOC(=O)CCCCC(=O)c1[nH]c(=O)[nH]c1CN1CCOCC1	1	5.5	85*	12	16	-0.5	-9	0.8	0.68	i

# Random excerpt: two records from the list, in no set order.
item	SMILES	T cruzi inh	UCH37 inh	MLL AF4-AF9 inh	Ecoli rRNA inh	Ecoli rRNA inh OD600	Ecoli rRNA inh RFP	Beta cell apopt	A1 inh	E coli growth	FGF22 binding
55	CCOC(=O)CCCCC(=O)c1[nH]c(=O)[nH]c1CN1CCOCC1	1	5.5	85*	12	16	-0.5	-9	0.8	0.68	i
51	CCc1ccc(C(=O)c2ccccc2C(=O)O)s1	-10	7.2	.	.	.	.	2	-0.5	0.71	.

# Entries from the list above that contain a tert-butyl group, in the order listed:
item	SMILES	T cruzi inh	UCH37 inh	MLL AF4-AF9 inh	Ecoli rRNA inh	Ecoli rRNA inh OD600	Ecoli rRNA inh RFP	Beta cell apopt	A1 inh	E coli growth	FGF22 binding
5	CC(C)(C)C(=O)O/N=C(\N)c1ccc(Br)cc1	-5	6.3	.	3	8	-0.6	2	-1.0	0.64	i
54	CC(C)(C)c1ccc(C(=O)NCC(=O)OCC(=O)Nc2ccc3c(c2)OCCO3)cc1	-4	2.0	1.4	-4	-5	-0.8	-5	0.1	0.69	i
